Screens from PubChem BioAssay.
Rango dissoc inh – inhibition of RanGTP-driven Rango-importin beta dissociation; Potency, µM (top dose mostly 46.1 µM), without a hit: at the top dose activity change, negative = inhibition; O95149+P62826; Biochemical FRET Rango-importin beta, RanGTP-induced dissociation; hit rate 0.071% among 340,000; active means falling FRET ratio curve, often poorly fitted, with flat reads before Ran was added; inconclusive means other falling curves, or compound fluorescence or quenching; inactive means flat or rising ratio curve;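 further: potency means the concentration at half of the fitted maximal effect; % of control where 0% means no effect; nearly all actives have a fitted effect of over 45% in size; -100% = wells without RanGTP and RCC1; the record marks most hits as doubtful in a second field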
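Rango/importin beta premix (0.1/0.25 uM final), PBS + 1 mM DTT + 0.02% Tween-20 + 0.1% BSA; cpd 5 min RT; FRET pre-read; + RanGTP-RCC1 (0.6 uM Ran, 2 mM GTP, 0.2 uM RCC1); 45 min RT; FRET post-read, ex 430, em 486/530 nm.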
miR-21 FLuc – miR-21 reporter, rising signal | HeLa miR-21 FLuc reporter, luciferase, 48 h | Potency, µM (top dose mostly 38.3 µM), inactives show at the highest dose reporter change, positive = more light | 340,000 tested, under 10 active | AID 2288; active = well fitted rising curve with a large enough effect; inconclusive = small, poorly fitted or top-dose-only effect; inactive = no such curve, though single readings can be large or run the other way;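 further: % of control where 0% means no effect; miR-21 action dims this reporter so a rising signal means less miR-21 action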
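Luminescence from a firefly luciferase reporter carrying a miR-21 binding site downstream, stably expressed under a CMV promoter in HeLa cells that make miR-21 endogenously, reports miRNA modulation after 48 h compound exposure up to approximately 40uM final.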
Rango complex inh – inhibitors of Rango-importin beta complex formation. Potency, µM (doses to about 92.2 µM), inactives show top-dose inhibition of complex formation. Rango CFP/YFP FRET sensor + importin beta, 45 min. hit rate 0.031% among 340,000. AID 540263. Q14974; active = rising FRET ratio curve, often small or poorly fitted; inconclusive = mostly compound fluorescence or quenching in the first reads; inactive = flat curves in all reads;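 further: potency means the concentration at half of the fitted maximal effect; 0% = DMSO wells and 100% = buffer wells lacking importin beta; nearly all actives have a fitted effect of over 15% in size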
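FRET biosensor Rango (snurportin 1 IBB between N-terminal EYFP and C-terminal Cerulean), 50 nM in PBS/1 mM DTT/0.02% Tween-20/0.1% BSA, preincubated 5 min RT with compound; 0.125 microM importin beta added, 45 min RT, CFP/YFP FRET ratio read.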
GLA inh pH 4.5 – inhibitors of human alpha-galactosidase A at pH 4.5. AID 1467. purified enzyme, 4-MU-alpha-Gal fluorescence, pH 4.5. 230,000 tested, under 10 active. P06280. activity change, negative = inhibition, % at 105 µM; inconclusive = small, poorly fitted or top-dose-only inhibition, or a rising curve; inactive = flat fitted curve, though single readings scatter; no compound was filed as active;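 further: 0% = full activity with enzyme and -100% = basal without enzyme; dose as in the result columns while the protocol names 77 µM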
Target sequence (P06280 whole entry, looked up): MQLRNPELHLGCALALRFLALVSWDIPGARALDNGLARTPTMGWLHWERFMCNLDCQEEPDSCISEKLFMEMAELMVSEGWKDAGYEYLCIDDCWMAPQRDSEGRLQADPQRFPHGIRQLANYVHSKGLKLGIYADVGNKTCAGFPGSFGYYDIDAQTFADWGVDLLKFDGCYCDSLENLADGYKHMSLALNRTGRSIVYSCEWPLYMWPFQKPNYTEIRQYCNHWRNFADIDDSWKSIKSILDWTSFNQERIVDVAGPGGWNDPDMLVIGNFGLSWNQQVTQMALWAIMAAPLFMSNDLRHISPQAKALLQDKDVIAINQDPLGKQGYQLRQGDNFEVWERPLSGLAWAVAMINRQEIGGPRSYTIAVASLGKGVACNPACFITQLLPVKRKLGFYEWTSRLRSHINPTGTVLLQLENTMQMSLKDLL
Active calls of the source: *; u = inconclusive; x = not tested or not shown; & = joins results of further samples. This is a subset. The share of hits here may be higher or lower than overall.

Rango dissoc inh | miR-21 FLuc | Rango complex inh | GLA inh pH 4.5 | smiles
4% | -25%&-25% | 8.1% | -3 | O=C(NCc1ccccc1)c1cc2ccccc2o1
-13% | -34% | 0.1% | 2 | OCC#CCSc1nnc(-c2ccc(Br)cc2)o1
6% | -10% | -0.5% | -7 | COc1ccc(CC(=O)N2N=C(C)CC2(O)C(F)(F)F)cc1 (centres undefined)
-8% | -2% | 4.1% | x | COc1ccc(CCNC(=O)C2CCN(C(=O)c3ccc(OC)c(OC)c3)CC2)cc1
-9% | -49% | 4.6% | -8 | Cc1cc(/C=N/NC(=O)c2ccncc2)c(C)n1-c1ccccc1
-1% | -3% | -2.7% | 4 | Cn1c(=O)c(=O)n(C)c2cc(S(=O)(=O)NCc3ccc(Cl)cc3)ccc21
-6% | 0% | -0.2% | -6 | COc1ccccc1NC(=O)Cc1noc(CSc2nnc(N)s2)n1
-20% | -7% | -0.9% | -8 | C=CCn1c(O)c(N=NC(=O)OCC)c2ccccc21
19% | 27% | 6.4% | x | O=C(O)CSc1cc(NS(=O)(=O)c2ccc(Br)cc2)c2ccccc2c1O
-9% | 8% | 1.2% | x | COc1ccc(-c2noc(=O)n2Cc2ccc(F)cc2Cl)cc1
5% | 0% | 1.3% | x | COc1cccc(OCC(=O)NNC(=O)c2ccc3ccccc3c2)c1
11% | 3% | -0.5% | 0 | O=C(Nc1ccc(Cl)cc1C(F)(F)F)C(Sc1cccc[n+]1[O-])c1ccccc1 (centres undefined)
24% | x | 0.8% | x | O=C(COC(=O)c1cc(S(=O)(=O)N2CCOCC2)ccc1Cl)NCc1ccc2c(c1)OCO2
5% | -7% | -0.8% | -8 | Cc1ccc(CNC(=O)CCNC(=O)Cn2ccc3ccccc3c2=O)o1
2% | 5% | 3.5% | 1 | O=C(Cn1nc(-c2ccccc2)c2ccccc2c1=O)NN1CCOCC1
-2% | x | 2.1% | x | CN(c1ccccc1)S(=O)(=O)c1cc(C(=O)NCCCn2ccnc2)ccc1Cl
7% | -10% | -0.1% | -9 | CCOC(=O)C1CCCN(C(=O)c2sc3nc(C)nc(N(CC)CC)c3c2C)C1 (centres undefined)
-12% | 0% | 1.4% | x | CC(CN1C(C)CCCC1C)OC(=O)c1cccc(Br)c1 (centres undefined)
-5% | -2% | -0.9% | 3 | CC1CCN(S(=O)(=O)c2ccc(S(=O)(=O)N3CCC4(CC3)OCCO4)cc2)CC1
-8% | 1% | -1.5% | 12 | COc1cc(/C=C/C(=O)NCc2nc3ccccc3[nH]2)cc(OC)c1OC
-2% | -3% | 0.3% | -2 | Cc1nnc(Sc2c(N)n(C)c(=O)[nH]c2=O)s1
3% | 4% | -0.4% | x | CC1CCN(C(=O)CSc2nc(C3CC3)nc3ccccc23)CC1
25% | -13% | -0.9% | x | CC(C)(C)Nc1nc(Cl)nc(NC2CCCCC2)n1
-22% | x | -2.4% | -13 | CN1CCCC1CCOC(C)(c1ccccc1)c1ccc(Cl)cc1 (centres undefined)
0% | 2% | -0.6% | 3 | CCOC(=O)Cn1nc(Cc2ccccc2)c2ccccc2c1=O
u | -15% | u | -7 | Nc1nc2c(s1)C(=O)CC(c1ccccc1)C2 (centres undefined)
2% | -2% | 0.8% | x | CCCc1cc(=O)oc2cc(OCC(=O)N3C[C@H]4C[C@@H](C3)c3cccc(=O)n3C4)c(Cl)cc12
4% | 16% | -4.2% | 1 | O=C(NNC(=S)NC(=O)C12CC3CC(CC(C3)C1)C2)c1ccncc1
-2% | 0% | 1.9% | x | CCCCN(CCCC)CCCNC(=O)CN1C(=O)COc2ccc(S(=O)(=O)N3CCC(C)CC3)cc21
1% | -26% | 2.9% | -2 | Nc1nnc(CSCc2cccc(Br)c2)s1
-10% | -21% | -3.6% | -12 | COC(=O)c1cc(OC)c(OC)cc1NC(=O)C(C)Sc1ccc(C)cc1 (centres undefined)
15% | -3% | 1.9% | 0 | COc1ccc2cnnc(SCC(=O)Nc3ccc(C(C)=O)cc3)c2c1OC
30% | x | -2.6% | x | CC(=O)Nc1cccc(NS(=O)(=O)c2cc3c4c(c2)CCN4C(=O)CC3)c1
34% | x | 1.7% | x | O=S1(=O)c2ccc(Br)cc2N2CCC[C@@H]2CN1Cc1ccccc1
9% | -6% | -0.6% | -7 | Cc1[nH]n(-c2cccc3ccccc23)c(=O)c1/C=N/c1sc2c(c1C#N)CCC2
-9% | x | 1.2% | x | Cc1nc(C)c(C(=O)OCC(=O)N(C)c2ccccc2)s1
9% | -12% | 1.3% | x | COc1ccc(-c2cc(C(=O)NCC3CCCO3)on2)cc1OC (centres undefined)
u | -67% | u | -3 | COc1ccc(N=Cc2nc(-c3ccccc3)oc2OC(=O)c2ccccc2)cc1
x | -7% | x | 5 | Cn1c(=O)c2c(SCc3ccccc3)nc(-c3ccco3)nc2n(C)c1=O
-4% | -3% | -2.5% | x | CC(C)CN(C(=O)CN1C(=O)C2CCCCC2C1=O)c1c(N)n(Cc2ccccc2)c(=O)[nH]c1=O (centres undefined)
-3% | -49% | 0.0% | -18 | O=C(Nc1ccc2ccccc2c1)c1cccnc1
5% | -34% | -0.4% | 6 | O=C(CSCc1ccccn1)Nc1ccccc1
12% | -1% | 2.3% | 4 | S=C(NCCCN1CCOCC1)Nc1cccc(Cl)c1
-10% | -5% | u | -9 | O=C1NC(=Nc2cccnc2)S/C1=C/c1ccc(F)cc1
1% | x | -0.8% | x | COc1ccc(C(=O)Nc2ccc(Cl)cc2F)cc1S(=O)(=O)N1CCCC1

An excerpt from the list above, for reference:
Rango dissoc inh | miR-21 FLuc | Rango complex inh | GLA inh pH 4.5 | smiles
-2% | 0% | 1.9% | x | CCCCN(CCCC)CCCNC(=O)CN1C(=O)COc2ccc(S(=O)(=O)N3CCC(C)CC3)cc21
1% | -26% | 2.9% | -2 | Nc1nnc(CSCc2cccc(Br)c2)s1
-10% | -21% | -3.6% | -12 | COC(=O)c1cc(OC)c(OC)cc1NC(=O)C(C)Sc1ccc(C)cc1 (centres undefined)
15% | -3% | 1.9% | 0 | COc1ccc2cnnc(SCC(=O)Nc3ccc(C(C)=O)cc3)c2c1OC
30% | x | -2.6% | x | CC(=O)Nc1cccc(NS(=O)(=O)c2cc3c4c(c2)CCN4C(=O)CC3)c1
34% | x | 1.7% | x | O=S1(=O)c2ccc(Br)cc2N2CCC[C@@H]2CN1Cc1ccccc1
9% | -6% | -0.6% | -7 | Cc1[nH]n(-c2cccc3ccccc23)c(=O)c1/C=N/c1sc2c(c1C#N)CCC2
-9% | x | 1.2% | x | Cc1nc(C)c(C(=O)OCC(=O)N(C)c2ccccc2)s1
9% | -12% | 1.3% | x | COc1ccc(-c2cc(C(=O)NCC3CCCO3)on2)cc1OC (centres undefined)
u | -67% | u | -3 | COc1ccc(N=Cc2nc(-c3ccccc3)oc2OC(=O)c2ccccc2)cc1
x | -7% | x | 5 | Cn1c(=O)c2c(SCc3ccccc3)nc(-c3ccco3)nc2n(C)c1=O
-4% | -3% | -2.5% | x | CC(C)CN(C(=O)CN1C(=O)C2CCCCC2C1=O)c1c(N)n(Cc2ccccc2)c(=O)[nH]c1=O (centres undefined)
-3% | -49% | 0.0% | -18 | O=C(Nc1ccc2ccccc2c1)c1cccnc1
5% | -34% | -0.4% | 6 | O=C(CSCc1ccccn1)Nc1ccccc1
12% | -1% | 2.3% | 4 | S=C(NCCCN1CCOCC1)Nc1cccc(Cl)c1
-10% | -5% | u | -9 | O=C1NC(=Nc2cccnc2)S/C1=C/c1ccc(F)cc1
1% | x | -0.8% | x | COc1ccc(C(=O)Nc2ccc(Cl)cc2F)cc1S(=O)(=O)N1CCCC1

Continuation.
Rango dissoc inh | miR-21 FLuc | Rango complex inh | GLA inh pH 4.5 | smiles
-1% | -25% | 6.3% | 0 | Cc1cc(C)c(COc2ccc(/C=N/n3c(C)n[nH]c3=S)cc2)c(C)c1
1% | -1% | 1.7% | x | O=C(C1CCCC1)N1CCN(S(=O)(=O)c2ccc(F)cc2)CC1
34% | 0% | 4.7% | x | CCCCn1c(N)c(N(CC)C(=O)c2ccc(C)cc2)c(=O)[nH]c1=O
0% | -2% | 0.0% | -8 | COC(=O)CSc1nnc(CNc2ccc(F)cc2)o1
18% | x | 3.4% | x | CC(C)(CNC(=O)c1cccc(S(=O)(=O)Nc2ccc(SC(F)F)cc2)c1)N1CCOCC1
6% | 1% | 0.9% | -4 | Cc1n[nH]c(C)c1CS(=O)(=O)c1ccccc1
1% | x | 0.5% | x | CCSc1nnc(NC(=O)c2ccc(F)c(S(=O)(=O)N3CCOCC3)c2)s1
